Screens as filed in PubChem BioAssay.
PrP UTR inh: suppresses PrP 5' UTR mRNA reporter expression; hit rate 0.35% among 340,000; AID 488862; cell-based PrP 5' UTR mRNA reporter, plate reader; inhibition, % (concentration not given with the values);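 active = every replicate at 50% or more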;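 note: 0 = median of the neutral control wells; tested in H4 reporter cells; numbers are from one replicate; inactives centre near -14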
Bead autofluor: compound fluorescence in toxin protease inhibitor counterscreen | compound autofluorescence counterscreen, microsphere flow cytometry; active compounds read high | fluorescence intensity (test concentration not listed) | hit rate 3.1% among 360,000 | AID 624483;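 active = at least 3 SD above the mean of all compounds, about 16000 in these data; inconclusive = too few beads counted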;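 note: 100 nL of 1 mM stock went into each well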
Mtb hypoxia inh: inhibitors of hypoxia-regulated fluorescent reporter in Mycobacterium tuberculosis | M. tuberculosis hypoxia-regulated fluorescent reporter, fluorescence | fluorescence inhibition, % (test concentration not listed) | hit rate 0.1% among 300,000;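 active = 35 to 45% if threefold the growth effect, above 45% if 1.5-fold the growth effect; inactive = the rest, general growth blockers included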;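 note: wells of about 50 µL received 100 nL stock; 0% = vehicle wells and 100% = reference inhibitor wells; whole bacteria with a GFP reporter of the hypoxia response; strong numbers were not always called active; many hits fall short of the cut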
RN4220 kill: kills Staphylococcus aureus RN4220. S. aureus RN4220 growth, OD600, 16 h. hit rate 0.33% among 330,000. inhibition, % (test concentration not listed);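 active = z-score of -3 or lower and OD600 up to 0.18 on both plates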;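 note: plate controls were untreated cells for no effect and reference antibiotic for full effect; stock transfer was 100 nL into about 80 µL; one replicate is shown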
ugtP null kill: growth inhibition of S. aureus ugtP deletion strain; S. aureus RN4220 ugtP deletion, OD600 growth, 16 h; some inactives read as strong as hits; growth inhibition, % (test concentration not listed); hit rate 0.54% among 330,000; AID 1259309;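 active = z-score under -3 and OD600 up to 0.15 on both plates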;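 note: plate controls were untreated wells for no effect and antibiotic for full effect; wells of about 80 µL received 100 nL stock; the first replicate is given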
BJeLR viability: BJeLR cell viability loss. hit rate 0.17% among 300,000. inhibition, % (test concentration not listed). BJeLR (HRASV12) viability, CellTiter-Glo ATP luminescence, 48 h; reference of the scale not given here;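 active = replicate mean above 50%; inconclusive = above 50% but judged a plate artefact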;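 note: 50 nL library stock added to about 25 µL; numbers are from one replicate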
Mtb hypoxia inh growth: second read-out of Mtb hypoxia inh, no call of its own (marks repeat the call); growth inhibition, %; measured here: M. tuberculosis growth (absorbance);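 0% = vehicle and 100% = reference antibiotic; read after six days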
* hit, by the source's call; ? = inconclusive; . = not tested or not shown; & = joins results of further samples.

A first look:
Structure	PrP UTR inh	Mtb hypoxia inh growth	RN4220 kill	ugtP null kill	Bead autofluor	Mtb hypoxia inh	BJeLR viability
COC(=O)NCCc1cc(OC)c(OC)cc1S(=O)(=O)N1CC(=O)Nc2ccccc21	-10	1	0.7	2	3731	1	1
COc1cc(C(=O)NC(C)CCn2cccn2)ccc1OC1CCN(C(C)=O)CC1 (stereo not drawn)	-13	11	3.0	4	5588	5	-6
CN(C)CCCNCCNC(=O)C=NO	.	1	2.7	-5	.	-3	.
CCN(C(=O)COC(=O)C12CC3CC(CC(O)(C3)C1)C2)c1c(N)n(Cc2ccccc2)c(=O)[nH]c1=O	-19	0	2.7	5	3610	-6	.
COc1ccc(OC)c(-c2csc(NC(=O)COC(=O)C3(C)CC3(Cl)Cl)n2)c1 (stereo not drawn)	-21	0	20	-6	3966	12	.

All compounds of this part, previewed entries included:
Structure	PrP UTR inh	Mtb hypoxia inh growth	RN4220 kill	ugtP null kill	Bead autofluor	Mtb hypoxia inh	BJeLR viability
COC(=O)NCCc1cc(OC)c(OC)cc1S(=O)(=O)N1CC(=O)Nc2ccccc21	-10	1	0.7	2	3731	1	1
COc1cc(C(=O)NC(C)CCn2cccn2)ccc1OC1CCN(C(C)=O)CC1 (stereo not drawn)	-13	11	3.0	4	5588	5	-6
CN(C)CCCNCCNC(=O)C=NO	.	1	2.7	-5	.	-3	.
CCN(C(=O)COC(=O)C12CC3CC(CC(O)(C3)C1)C2)c1c(N)n(Cc2ccccc2)c(=O)[nH]c1=O	-19	0	2.7	5	3610	-6	.
COc1ccc(OC)c(-c2csc(NC(=O)COC(=O)C3(C)CC3(Cl)Cl)n2)c1 (stereo not drawn)	-21	0	20	-6	3966	12	.
NC(=O)c1ccccc1NC(=O)c1ccc2ccccc2c1	-59	2	-0.4	-5	3186	-2	-4
CCN(CC)c1ccc(N=Cc2c(O)n(Cc3ccccc3)c(=O)[nH]c2=O)cc1	-5&-15	2&3	1.6&1.8	3&-4	3912&2988	1&-11	-2&0
COc1ccccc1NC(=O)c1ccc(COc2ccccc2Br)o1	-3	-8	5.3	-3	2927	-6	11
COc1ccc(-c2cc(C)nc3c(-c4ccccc4)cnn23)cc1	-101	1	6.7	23	4273	1	3
Cc1occc1-c1nnc(SCC(=O)NCc2cccs2)n1-c1ccc(F)cc1	-17	.	1.8	7	2814	.	-6
Cc1noc(C)c1C(=O)Nc1ccc(S(=O)(=O)N2CCCCC2)cc1	-25	-1	0.4	2	4577	11	-9
Cc1ccc2nc(C3CCCN(C(=S)Nc4ccccc4C)C3)[nH]c2c1 (stereo not drawn)	-14	6	8.4	0	5692	7	4
COC(=O)c1c(N2C(=O)[C@H]3[C@@H](C2=O)[C@]2(C(=O)Nc4c2ccc(C)c4C)N2CCC[C@@H]32)sc(C)c1C	-17	15	2.3	-2	3098	5	-11
Cc1ccc(CNC(=O)c2cncc(Br)c2)cc1	-16	.	1.0	3	4776	.	5
O=C(Nc1cccnc1Cl)c1cc(-c2ccc(F)cc2)on1	-40	7	-2.0	2	4087	-6	-7
CCCNS(=O)(=O)c1ccc(OCC(=O)N2CCCC2)cc1	-4	9	3.9	10	3517	7	-5
CS(=O)(=O)N(CC(=O)N1CCc2ccccc2C1)c1ccc(Br)cc1	.	-5	1.6	7	4005	4	0
CC(C)C(=O)Nc1nnc(-c2ccccc2)o1	2	4	1.4	5	5739	0	-3
O=c1c(NCCc2ccccc2)c(-c2ccccc2)c1=O	-18	6	5.6	9	3370	4	4
COc1ccc(CCNC(=S)N2CCN(S(=O)(=O)c3ccc(C)cc3)CC2)cc1	-8	-11	-0.3	-3	4899	-5	-12

Pulled by compound from the list above:
Structure	PrP UTR inh	Mtb hypoxia inh growth	RN4220 kill	ugtP null kill	Bead autofluor	Mtb hypoxia inh	BJeLR viability
Cc1ccc(CNC(=O)c2cncc(Br)c2)cc1	-16	.	1.0	3	4776	.	5
O=C(Nc1cccnc1Cl)c1cc(-c2ccc(F)cc2)on1	-40	7	-2.0	2	4087	-6	-7
CCN(C(=O)COC(=O)C12CC3CC(CC(O)(C3)C1)C2)c1c(N)n(Cc2ccccc2)c(=O)[nH]c1=O	-19	0	2.7	5	3610	-6	.
COc1ccc(OC)c(-c2csc(NC(=O)COC(=O)C3(C)CC3(Cl)Cl)n2)c1 (stereo not drawn)	-21	0	20	-6	3966	12	.
COc1ccc(-c2cc(C)nc3c(-c4ccccc4)cnn23)cc1	-101	1	6.7	23	4273	1	3

More structures follow.
Structure	PrP UTR inh	Mtb hypoxia inh growth	RN4220 kill	ugtP null kill	Bead autofluor	Mtb hypoxia inh	BJeLR viability
O=C(NNC(=S)NCCc1ccccc1)c1ccc(Br)s1	-14	2	14	12	4802	13	-8
CCOC(=O)c1c(-c2ccc(OC)cc2)csc1NC(=O)CSc1ccccc1	-17	.	-2.9	19	4974	.	-1
COc1cc(C(=O)OC2C[C@H]3CC[C@@H](C2)N3C)ccc1O (stereo partly drawn)	-14	-3	1.5	1	2865	-8	5
CC(Sc1nc2ccccc2c(=O)n1CC1CCCO1)C(=O)Nc1ccc(S(N)(=O)=O)cc1 (stereo not drawn)	2	9	-1.3	-3	?	-5	-4
CCC(CO)Nc1ccc([N+](=O)[O-])c2cccnc12 (stereo not drawn)	-40	9	3.8	4	22808*	13	8
O=C(O)c1ccccc1-c1ccc(/C=C/c2cc(C(F)(F)F)[nH]c(=O)n2)o1	-18	6	3.0	2	3632	-7	3
O=C(NCc1cccc(Br)c1)C1CC2Cn3c(nc4ccccc43)C2N1c1ccccc1 (stereo not drawn)	-25	4	3.6	-1	4060	2	-4
CCOc1cc(CNCCSc2nnnn2C)cc(Br)c1OCc1ccccc1	-21	13	6.5	-9	3436	9	6
O=C(CN1CCN(c2ncccn2)CC1)N1CCCc2c1c(=O)oc1ccc(O)cc21	-21	.	4.9	2	2889	.	.
Clc1ccc(OCCNCCc2ccccc2)cc1	-21	-4	0.2	1	4849	2	-1
CC(C)(C)c1ccc(C(=O)NCCC(=O)N2CCC3(CC2)NCCc2[nH]cnc23)cc1	-16	0	2.4	1	5670	12	10
Cc1cccc(/C(N)=N/OC(=O)C23CC4CC(CC(C4)C2)C3)c1	-33	5	-2.8	5	1947	10	-6
CCOc1ccc2oc(C(=O)N3CCN(c4ccccc4OCC)CC3)c(C)c2c1	-9	2	6.0	64	6667	6	-8
O=C(CSc1nc2ccccc2c(=O)n1NC(=O)c1ccccc1)c1ccc(Cl)cc1	-29	9	4.4	-11	19026*	8	7
O=C(NCCN1CCCCCC1)c1ccc(N2CCCC2=O)cc1	-11	.	2.2	0	4431	.	6
CCc1ccc(NC(=O)c2noc3c2CCCCC3)cc1	-60	13	4.9	-1	10839	4	1
Cc1ccc(C(=O)C(C)OC(=O)c2n[nH]c(=O)c3ccccc23)cc1 (stereo not drawn)	-5	.	0.5	-4	4778	.	-2
COc1ccc(S(=O)(=O)N(C)CC2Oc3ccc(NC(=O)C4CC4)cc3C(=O)N(C(C)CO)CC2C)cc1 (stereo not drawn)	.	4	6.6	12	.	14	.
COP(=O)(OC)c1nc(-c2cccc3ccccc23)oc1NCCc1ccccc1	-11	1	8.3	-18	1992	3	-7
O=C(c1ccccc1)c1c2c(cc3sc4ccccc4[n+]13)-c1cccc3cccc-2c13	3	14	100*	100*	6966	24	.

Single records, from the list above:
`CCOc1cc(CNCCSc2nnnn2C)cc(Br)c1OCc1ccccc1` as listed: PrP UTR inh: -21; Mtb hypoxia inh growth: 13; RN4220 kill: 6.5; ugtP null kill: -9; Bead autofluor: 3436; Mtb hypoxia inh: 9; BJeLR viability: 6
`Cc1cccc(/C(N)=N/OC(=O)C23CC4CC(CC(C4)C2)C3)c1` as listed: PrP UTR inh: -33; Mtb hypoxia inh growth: 5; RN4220 kill: -2.8; ugtP null kill: 5; Bead autofluor: 1947; Mtb hypoxia inh: 10; BJeLR viability: -6

(cont.)
Structure	PrP UTR inh	Mtb hypoxia inh growth	RN4220 kill	ugtP null kill	Bead autofluor	Mtb hypoxia inh	BJeLR viability
CCOC(=O)c1ccc2c(c1)n(CC)c(/C=C/N(C)c1ccccc1)[n+]2CC	-25	13	19	6	11092	5	9
Cc1cc(OC(C)C(=O)NCCCN2CCOCC2)c2c(C)c(C)c(=O)oc2c1 (stereo not drawn)	-7	3	-0.2	1	6068	13	7
O=C(Nc1cc(-c2ccccc2)[nH]n1)c1ccc(Cl)cc1	-56	-7	-2.8	-15	3901	3	-2
CSc1ccc(/C=N/N(C)S(=O)(=O)c2ccc(C)cc2)cc1	12	.	.	.	2829	.	4
COC(=O)c1ccccc1NC(=O)c1sc(N)nc1C	-4	.	5.6	-2	4670	.	.
CCN(CC)CCN1C(=O)C(=O)/C(=C(/O)c2ccncc2)C1c1ccccc1F (stereo not drawn)	-25	.	-1.7	3	4521	.	.
Cc1ccc(N2CC(NS(=O)(=O)c3cccs3)CC2=O)cc1 (stereo not drawn)	-1	0	2.1	0	?	3	7
C/C(=N/Nc1ncc(Br)cn1)c1ccc([N+](=O)[O-])cc1	-11	.	.	.	3774	.	2
O=C(CSc1nnc(Nc2ccccc2)s1)NC1CCCC1	-1	13	0.4	2	8567	-13	.
Cc1c[n+](CC(=O)c2ccccc2)cs1	-11	5	-3.9	6	3505	-5	0
COc1ccc(/C=C2\SC(=S)N(c3cccnc3)C2=O)cc1	-28	3	2.9	7	3969	13	-4
Nc1nonc1-n1nnc(C(=O)NN=Cc2cccs2)c1-c1ccc2c(c1)OCO2	.	7	-0.4	-1	.	-3	.
O=C(CCCC(=O)NCCc1ccccc1)NCCc1ccccc1	-24	7	2.6	-1	2536	-3	-8
Cn1c(N)c(C(=O)CSc2nc(C3CC3)n(-c3ccccc3)n2)c(=O)[nH]c1=O	-12	4	0.4	5	6286	0	.
COc1ccccc1CNCc1cc(Br)ccc1OC	-3	9	8.5	-3	4154	14	-7
COc1ccccc1-c1coc2c(CN(C)C)c(O)ccc2c1=O	-27	-3	2.2	17	3120	10	-8
CC(=O)OC(C(=O)Nc1ccccc1)C(C)S(=O)(=O)c1ccccc1 (stereo not drawn)	4	.	3.8	-2	2703	.	7
Cc1cc(C)c(C(N)=O)c(SCC(=O)c2ccc(Cl)cc2)n1	-24	7	13	-7	10719	18	0

Compounds were not picked by outcome. Share with any hit: about 4%.
